RecA intein inh: inhibitors of M. tuberculosis RecA intein splicing; P9WHJ3; cell-free RecA intein splicing, fluorescence; inhibition, %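 (about 9 µM by stock and volumes)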; 0.75% of 290,000 active; AID 2221; in the data active means inhibition above about 30%; inconclusive means no clear call, values can overlap the other calls;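 further: 0% = vehicle wells and 100% = reference inhibitor control wells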
Target sequence (P9WHJ3 whole entry, looked up): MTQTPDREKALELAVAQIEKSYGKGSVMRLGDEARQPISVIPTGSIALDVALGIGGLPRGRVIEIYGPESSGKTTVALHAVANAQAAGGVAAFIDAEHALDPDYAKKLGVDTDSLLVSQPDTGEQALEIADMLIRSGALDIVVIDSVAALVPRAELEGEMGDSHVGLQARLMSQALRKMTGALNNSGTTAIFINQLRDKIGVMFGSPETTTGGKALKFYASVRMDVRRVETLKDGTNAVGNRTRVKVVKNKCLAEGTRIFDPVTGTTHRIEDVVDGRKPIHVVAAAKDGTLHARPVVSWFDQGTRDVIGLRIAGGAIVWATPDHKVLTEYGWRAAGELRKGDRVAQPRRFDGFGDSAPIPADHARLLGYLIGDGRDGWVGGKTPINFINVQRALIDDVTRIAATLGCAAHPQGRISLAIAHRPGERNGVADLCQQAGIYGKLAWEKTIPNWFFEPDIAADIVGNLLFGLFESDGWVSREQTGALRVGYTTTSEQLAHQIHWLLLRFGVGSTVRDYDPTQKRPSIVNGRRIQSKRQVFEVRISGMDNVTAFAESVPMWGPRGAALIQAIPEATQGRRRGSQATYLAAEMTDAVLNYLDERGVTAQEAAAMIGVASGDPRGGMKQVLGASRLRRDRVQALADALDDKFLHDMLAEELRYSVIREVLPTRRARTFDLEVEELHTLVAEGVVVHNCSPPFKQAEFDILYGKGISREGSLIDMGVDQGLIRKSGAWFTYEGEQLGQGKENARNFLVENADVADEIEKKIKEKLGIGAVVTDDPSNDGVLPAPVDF
Mtb betalactam: beta-lactam sensitization of Mtb H37Rv. AID 434955. inhibition, % at 25 µM. 0.27% of 330,000 active. M. tuberculosis H37Rv growth with meropenem, percent inhibition; hits of this screen are not shown here;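 active means about 74% or more and at least 40 points above the plate without the antibiotic, then above 30% in a dose series; inconclusive means first-round hits that could not be retested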;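 further: growth measured after seven days incubation then overnight dye step; 0% = bacteria only wells and 100% = bacteria with antibiotic; twin plates without the antibiotic show which effects depend on it; some results filed as inactive read as strong as hits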
YopH inh: YopH (Yersinia) phosphatase inhibition; fluorescence Ex485/Em525; inhibition, %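 (about 10 µM by stock and volumes)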; 0.16% of 140,000 active;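 active means inhibition of 50% or more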;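 further: controls were vehicle for no effect and minimum signal wells for full effect; inactives centre near -20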
Arbovirus anti: arbovirus infection inhibition; arbovirus infection cell-based antiviral screen; inhibition, % at 10 µM; 0.37% of 200,000 active; AID 1251;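 active means inhibition from about 30%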;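 further: bluetongue infection of BSR cells; cell survival read as ATP light after 72 h; 0% = infected wells without compound and 100% = uninfected wells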
Mtb growth: M. tuberculosis H37Rv growth inhibitors, H37Rv strain (AID 1626) | M. tuberculosis H37Rv growth inhibition; higher % means a stronger effect | inhibition, % at 10 µM; hits with a dose series show IC50 in µM | 0.95% of 220,000 active;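 active means confirmed in a dose series; inconclusive means inhibition above 80% but not taken into the dose series; inactive means below 80% or under 30% at every dose of the series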;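 further: bacteria incubated seven days before Alamar blue readout; 0% = bacteria only wells and 100% = bacteria with antibiotic wells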
Arbovirus anti repeat: further read-out of Arbovirus anti, marked with its call; inhibition, %; measured here: 10K subset replicate screen; many hits read low in the repeat;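 first of two repeat runs on a subset; 0% = infected and 100% = uninfected wells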
Numbers without * were called inactive; u = inconclusive; x = no result given. Not all compounds are listed, so the mix of outcomes need not match the whole.

SMILES	RecA intein inh	Mtb betalactam	YopH inh	Arbovirus anti	Mtb growth	others
O=C(NC1CCCCC1)C1CCC(=O)N(Cc2cccc(C(F)(F)F)c2)C1 (centres undefined)	-4.2	-3	x	x	x
CCc1nnc(NC(=O)CCN2C(=O)CCC2=O)s1	-1.0	2	-34	4	0%	Arbovirus anti repeat=2
C=CCc1c(C)nn(CC(=O)O)c1-c1ccccc1	3.4	-9	-42	-4	-2%
O=C(NCCN1CCOCC1)c1cccc(S(=O)(=O)NCc2ccccc2)c1	1.4	-8	x	x	x
O=C(Cc1c[nH]c2ccccc12)NC1(C(=O)NC2CCCC2)CCCCC1	1.1	3	x	-1	-3%
COC(=O)N(NC(=O)C(O)(c1ccccc1)c1ccccc1)c1ccc(C)cc1	1.2	2	-8	-1	3%
CN(/C=C/C(=O)C(F)(F)F)Cc1ccccc1	-2.1	-1	17	1	1%
NC1=C(c2ccccc2)C(=O)NC1=O	1.0	4	x	x	x
NC(=S)N/N=C/c1coc2c(ccc3ccccc32)c1=O	2.3	22	-23	11	4%
COc1ccc(S(=O)(=O)NCCc2nnc3ccc(SCC(=O)Nc4nc(C)cs4)nn23)cc1	-0.4	5	-33	6	0%
O=c1ccc(-c2ccc(S(=O)(=O)N3CCN(c4cccc(Cl)c4)CC3)o2)n[nH]1	-0.2	3	x	x	x
O=C(Nc1ccon1)c1sc2cc(F)ccc2c1Cl	x	1	-18	-4	5%
COc1cccc(-c2nc(CS(=O)(=O)CC(=O)NC3CCCC3)c(C)o2)c1	-0.1	4	x	x	x
CC(C)CC(OC(=O)c1nsc(Cl)c1Cl)C(=O)NCC1CCCO1 (centres undefined)	0.3	0	x	x	x
COc1ccc(/C=N/NC(=O)c2cccc(O)c2)cc1Cn1nc(C)c([N+](=O)[O-])c1C	0.9	8	x	-13	-3%
Cc1ccc(S(=O)(=O)NCC(=O)N2CCCC2)cc1	-0.3	-3	-24	7	-12%
C/C=N/NC(=O)c1cc(Br)ccc1O	-4.2	4	-18	2	5%
COc1cccc(CNC(=O)C2CCCN(S(=O)(=O)c3cnc[nH]3)C2)c1 (centres undefined)	x	5	-39	6	-8%
CCOC(=O)c1sc(NC(=O)c2ccco2)nc1-c1ccccc1	-0.6	0	-36	5	0%	Arbovirus anti repeat=4
CCOC(=O)N1CCC(NC(=O)c2cc(S(=O)(=O)N3CCC4(CC3)OCCO4)ccc2F)CC1	-2.3	1	-7	7	-5%
O=C1[C@@H]2[C@H]3CC[C@H](C3)[C@@H]2C(=O)N1O	-1.6	-6	x	x	-11%
CCOc1ccc(C(=O)Nc2cccc(C(=O)O)c2)cc1Cl	-2.7	1	x	8	4%
CCOC(=O)c1oc2cc(O)c(CC)cc2c(=O)c1-c1ccc2c(c1)OCCO2	-5.2	-4	-26	5	12%	Arbovirus anti repeat=13
COc1ccc(OC)c(CC(=O)N(C)C2CCCN(Cc3ccccc3F)C2)c1 (centres undefined)	0.1	-1	x	x	x
O=c1[nH]c(=O)n(Cc2ccc(F)cc2)c(O)c1C=NCc1cccnc1	-0.5	13	-42	4	-8%

The list goes on (4 carried over from the part before).
SMILES	RecA intein inh	Mtb betalactam	YopH inh	Arbovirus anti	Mtb growth	others
CCOc1ccc(C(=O)Nc2cccc(C(=O)O)c2)cc1Cl	-2.7	1	x	8	4%
CCOC(=O)c1oc2cc(O)c(CC)cc2c(=O)c1-c1ccc2c(c1)OCCO2	-5.2	-4	-26	5	12%	Arbovirus anti repeat=13
COc1ccc(OC)c(CC(=O)N(C)C2CCCN(Cc3ccccc3F)C2)c1 (centres undefined)	0.1	-1	x	x	x
O=c1[nH]c(=O)n(Cc2ccc(F)cc2)c(O)c1C=NCc1cccnc1	-0.5	13	-42	4	-8%
Cc1ccc2sc(NC(=O)c3cccc(N4C(=O)CCC4=O)c3)nc2c1C	-0.2	-10	x	x	x
Cc1ccc(C)c(NC(=O)NNC(=O)c2ccc3ccccc3c2O)c1	-1.0	-3	x	x	x
Cc1cc(C)cc(NC(=S)N2CCN(S(=O)(=O)c3ccccc3)CC2)c1	1.5	0	x	x	x
CC(C)CNC(=O)c1cnn2c(C(F)(F)F)cc(C(F)(F)F)nc12	-1.9	-7	x	x	4%
O=C(CO/N=C/c1ccccc1OC(F)F)NCc1cccs1	-3.1	-6	7	-6	12%
CC(Oc1ccccc1)C(=O)N1CCC2(CC1)Oc1ccc(F)cc1C(=O)C21CC(c2cccnc2)=NO1 (centres undefined)	1.6	81	x	x	1%
CC(C)CN(C(=O)COC(=O)C1c2ccccc2Oc2ccccc21)C1CCS(=O)(=O)C1 (centres undefined)	x	-3	-17	4	-1%
Cc1nn(C(=O)CNS(=O)(=O)c2ccccc2)c(C)c1Sc1ccc(Cl)cc1	32*	5	-31	23	5%
CC(C)[C@H](NC(=O)c1c(F)cccc1F)C(=O)OCC(=O)NC(=O)NC1CCCC1	2.2	u	x	x	x
COc1ccc(-c2noc(CCC(=O)NCCc3ccccc3)n2)cc1OC	0.9	-4	x	x	x
CCCCC(CC)C1OCC(CN2CCCCC2)O1 (centres undefined)	-6.4	-2	x	x	2%
CC(C)c1ccc(S(=O)(=O)c2nnn3c2nc(N2CCCCC2)c2ccccc23)cc1	6.8	-1	-23	-10	3%
COc1ccccc1NC(C)C(=O)N/N=C/c1cccs1 (centres undefined)	-3.3	-2	x	-3	-6%
COc1cc2c(cc1OC)CN(C(=S)Nc1c(C)cccc1C)CC2	-0.5	-2	-17	6	0%
COC(=O)CC1C(=O)NCCN1C(=O)c1ccccc1 (centres undefined)	0.8	-3	-13	2	-1%
Cc1c(Cl)cccc1NC(=O)COc1ccc(S(=O)(=O)N2CCOCC2)cc1	-11	-3	-17	-5	-1%
Cc1c(NC(=O)COC(=O)C23CC4CC(CC(O)(C4)C2)C3)c(=O)n(-c2ccccc2)n1C	-0.4	8	x	-1	-15%
COc1ccc(N2CCN(Cc3nc4ccccc4c(=O)[nH]3)CC2)cc1	-0.5	5	-7	9	-7%
COc1ccc(C2/C(=C(\O)c3ccc4c(c3)OCCO4)C(=O)C(=O)N2CCCN(C)C)cc1 (centres undefined)	0.8	-5	-42	1	-10%
C(=C\c1nccc2c1[nH]c1ccccc12)/c1ccccc1	6.5	100	x	x	8.4µM*
CC(C)CNC(=S)N(CCO)Cc1cc2cc3c(cc2[nH]c1=O)OCO3	-0.9	-7	x	x	x
O=C(CCN1CCCCC1)c1ccc2c(c1)OCO2	5.5	81	1	1	-7%
O=C(N[C@H](CO)[C@H](O)c1ccc([N+](=O)[O-])cc1)C(Cl)Cl	0.3	97	x	x	4.8µM*
NC(=O)c1ccc[n+](CC(=O)c2ccc(Cl)c(Cl)c2)c1	2.1	-3	x	x	x
CC(OC(=O)c1ccncc1)C(=O)Nc1ccc([N+](=O)[O-])cc1Cl (centres undefined)	0.7	2	x	14	3%

Sorted by molecular weight (lowest first): part of the list above
SMILES	RecA intein inh	Mtb betalactam	YopH inh	Arbovirus anti	Mtb growth	others
COC(=O)CC1C(=O)NCCN1C(=O)c1ccccc1 (centres undefined)	0.8	-3	-13	2	-1%
COc1ccc(N2CCN(Cc3nc4ccccc4c(=O)[nH]3)CC2)cc1	-0.5	5	-7	9	-7%
CC(C)[C@H](NC(=O)c1c(F)cccc1F)C(=O)OCC(=O)NC(=O)NC1CCCC1	2.2	u	x	x	x

Next part.
SMILES	RecA intein inh	Mtb betalactam	YopH inh	Arbovirus anti	Mtb growth	others
CCOc1ccc(C2/C(=C(\O)c3cccc(OC)c3)C(=O)C(=O)N2c2ccccn2)cc1OC (centres undefined)	-1.1	-2	x	x	-4%
Cc1ccc(S(=O)(=O)N2CCN(C(=O)c3ccccc3OCc3c(C)noc3C)CC2)cc1C	1.2	-2	x	x	x
Cc1ccc2oc(/N=C(\N)NC(=O)C3CC3)nc2c1	x	3	x	x	13%
CC1CC(CCC(=O)NC(=S)Nc2ccc(Cl)cn2)C(=O)O1 (centres undefined)	-0.2	3	x	7	-9%
COc1cc(NS(C)(=O)=O)c(OC)cc1NC(=O)c1ccccc1	1.0	-3	19	-3	-6%
O=C(NCCN1CCOCC1)NC1(C(F)(F)F)Oc2ccccc2O1	-9.1	-3	-43	2	-10%	Arbovirus anti repeat=-7
Cc1c(Cl)cccc1NC(=O)COC(=O)CN1C(=O)NC(C)(C)C1=O	-1.4	1	x	x	-5%
COc1ccc(N(CC(=O)NCCSC(C)(C)C)S(C)(=O)=O)c(OC)c1	-1.7	6	14	3	-3%
O=S(=O)(Nc1cc(C(F)(F)F)ccc1N1CCOCC1)c1ccc2ccccc2c1	-0.6	-5	-15	6	-5%
COc1cccc(/C=N/NC(=O)c2nnn(-c3nonc3N)c2-c2cccs2)c1	-1.5	-6	x	x	x
CCN(CC)CCn1c2c(c(SCC(=O)Nc3cccc4ccccc34)nc1=O)CCCC2	-0.5	-3	x	x	x
c1ccc(-c2nc(NCCCN3CCOCC3)c3ccccc3n2)cc1	-0.2	7	-14	-10	-5%
CCC(C)[C@H](NC(=O)[C@@H]1Cc2ccccc2CN1)C(=O)NCc1ccc(OC)cc1 (some centres undefined)	6.3	1	x	x	x
COc1ccc(N2C(=O)CC(N3CCN(S(=O)(=O)c4cc(C)ccc4C)CC3)C2=O)cc1 (centres undefined)	x	0	x	18	-4%
O=S(=O)(Cc1ccc(Cl)cc1)c1ccccc1-c1nnc(-c2ccc(Cl)cc2)o1	0.7	5	-27	-5	x
O=C(Cn1nnc(-c2ccc(NC(=O)c3ccccc3F)cc2)n1)NCc1ccc(F)cc1	x	4	x	x	-8%
COc1ccc(S(=O)(=O)N2CCCCC2)cc1C(C)C	x	4	17	8	-2%
Cc1cc(C)c(NC(=O)NC(=O)C(Cl)(Cl)Cl)c(C)c1	0.4	3	x	5	4%
CCOc1ccc(N(Cc2cc3cc(OC)ccc3[nH]c2=O)C(=O)C2CCCO2)cc1 (centres undefined)	x	-4	-34	4	-8%
Clc1cc(Cl)cc(Nc2ncnc(-n3cccc3)n2)c1	3.1	-2	x	x	9%
CCN(CC)c1ccc(CNc2nc3ccccc3n2C(C)C)cc1	-1.5	-4	x	x	0%
CCCc1nc2sc3c(c2c(=O)[nH]1)CCCC3	-1.7	1	x	-4	-5%
CC(C)NC(=S)N/N=C/c1ccccc1[N+](=O)[O-]	0.1	-1	x	9	3%
O=C(Nc1ccc(O)cc1)c1ccc(NC(=O)C2CCCO2)cc1 (centres undefined)	-1.3	-11	x	x	x
O=C(NCc1cccs1)C1CC(=O)N(c2ccc(F)cc2)C1 (centres undefined)	-1.9	0	-42	-3	-8%
The results go on:
SMILES	RecA intein inh	Mtb betalactam	YopH inh	Arbovirus anti	Mtb growth	others
COc1ccc(N2CCN(C(=O)c3ccc(OCC4CCCO4)cc3)CC2)cc1 (centres undefined)	-0.6	-7	-17	6	4%
Cc1ccc(NC(=O)CCC(=O)NNC(=O)c2cccs2)cc1C	1.6	x	-10	2	52%
Cc1ccccc1NC(=O)C(=O)c1cn(C)c2ccccc12	0.2	1	x	2	5%
Cc1cc(C(=O)NC(C)c2ccccc2)c2cc(F)ccc2n1 (centres undefined)	-1.5	-5	x	1	5%
O=C(c1cccnc1)N1CCN(S(=O)(=O)c2ccc(S(=O)(=O)N3CCCC3)cc2)CC1	-1.3	3	3	-7	-2%
O=C1OC(C(=O)Nc2nccs2)Cc2ccccc21 (centres undefined)	0.1	-6	-22	2	8%
COc1ccc(Cl)cc1S(=O)(=O)N1CCN(c2ccc(F)cc2)CC1	6.8	-2	-33	7	-1%	Arbovirus anti repeat=3
CCN(C(=O)CSc1nc(N)cc(N)n1)C1CCS(=O)(=O)C1 (centres undefined)	-1.0	1	x	x	x
C/C(=N\NS(=O)(=O)c1c(C)cc(C)cc1C)c1ccncc1	1.3	-10	x	x	x
O=C(CSc1ccccc1)N[C@@H](Cc1ccccc1)C(=O)O	-0.3	-4	x	1	-15%
CC(C)c1ccc(-c2nnn(CCC#N)n2)cc1	-3.2	1	x	4	5%
CCOC(=O)C1C(c2ccc(O)c(OC)c2)NC(=S)NC1(O)C(F)(F)F (centres undefined)	0.2	-2	-14	5	-3%
O=C1CC(=O)N(Cc2ccco2)C(=O)N1	1.9	-5	-30	34*	x
COc1ccc(NC(=O)CSc2nnc3ccc(-c4ccccn4)nn23)cc1	-1.4	-4	x	x	x
O=C(C1=C[C@@H](c2coc3ccccc3c2=O)C[C@@H](OCc2ccc(CO)cc2)O1)N1CCN(Cc2ccc3c(c2)OCO3)CC1	2.2	3	x	-9	-2%
Cc1cc(S(=O)(=O)Nc2ccc3ccccc3c2)c(C)s1	6.3	19	-25	6	10%
Cc1ccc(C(=O)Nc2ccc3c(c2)OCCO3)c(Cl)c1	-5.4	90	x	x	x
CC(C)CCNC(=O)C1CCCN(S(=O)(=O)c2ccc(F)cc2)C1 (centres undefined)	-0.1	-22	-1	0	-8%
O=C(Nc1ccc(N2CCN(C(=O)c3ccccc3)CC2)cc1)c1cccs1	-1.3	-4	x	x	x
CCNc1nc(NCC)nc(SCC(C)=O)n1	-3.7	3	x	11	-7%
